Source: PubChem (ICCB-Longwood Screening Facility, Harvard Medical School)
GIV-Gai inh = GIV-Galpha-i interaction inhibition | P08753 | Galpha-i3/FITC-GIV peptide fluorescence polarization, 90 min; active compounds read low; scaled: aluminum fluoride 0%, vehicle 100% | percent of control (FP), % (test concentration not listed) | 210,000 compounds, 0.42% hits | AID 1224905;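 active means replicate mean at 85% of control or lower, very high polarization wells dropped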;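 further: lower values mean more displacement of the GIV peptide from Galpha-i3; wells of about 15 µL received 100 nL stock; the first replicate is given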
Target sequence (P08753 whole entry, looked up): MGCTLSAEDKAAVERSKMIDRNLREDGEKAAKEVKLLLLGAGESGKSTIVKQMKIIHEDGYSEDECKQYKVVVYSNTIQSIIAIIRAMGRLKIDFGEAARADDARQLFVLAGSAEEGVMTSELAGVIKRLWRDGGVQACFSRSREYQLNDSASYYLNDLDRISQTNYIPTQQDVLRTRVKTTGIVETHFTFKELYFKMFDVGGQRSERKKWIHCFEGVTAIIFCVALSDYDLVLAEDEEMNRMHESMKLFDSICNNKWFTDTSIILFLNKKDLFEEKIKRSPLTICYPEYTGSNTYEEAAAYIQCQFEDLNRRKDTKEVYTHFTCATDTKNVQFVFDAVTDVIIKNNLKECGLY
Numbers without * were called inactive. A portion of the library; the hit share may differ from the screen's.

| GIV-Gai inh | compound |
| --- | --- |
| 108 | CCCCOc1ccc(C(=O)Oc2ccc(C(C)=O)cc2)cc1 |
| 102 | CCOC(=O)C1=c2s/c(=C/c3ccccc3)c(=O)n2C(N)=C(C#N)C1c1ccccc1 (centres undefined) |
| 101 | O=C(NCCC1=CCCCC1)c1c[nH]c2ccc(S(=O)(=O)N3CCC4(CC3)OCCO4)cc2c1=O |
| 101 | COc1cc(C2CC(=O)Nc3c2cnn3-c2nc3ccccc3s2)ccc1OCc1ccccc1 (centres undefined) |
| 98 | COc1ccc(OC)c(NC(=O)C2CCCN(S(=O)(=O)Cc3ccccc3)C2)c1 (centres undefined) |
| 102 | COc1ccc(NC(=O)CSc2nc(N)nc(SC)c2C#N)cc1 |
| 100 | Cc1ccc(NC(=O)N2CCC[C@@H]2C(=O)NCc2csc(-c3ccccc3)n2)cc1C |
| 102 | Brc1cn2c(Nc3ccc4c(c3)OCO4)c(-c3ccccc3)nc2cn1 |
| 100 | O=C(NC1CC1)c1cccc(Oc2cc(-c3cccc(F)c3)ncn2)c1 |
| 108 | O=c1n(Cc2ccccc2)nc2c(S(=O)(=O)N3CCCCCC3)cccn12 |
| 107 | O=C(Nc1ccc(SCc2nnc(-c3ccccc3)o2)cc1)c1ccc(Cl)cc1 |
| 96 | CC(C)Cn1c(=O)c(-c2ccc(C(=O)NCCCN3CCCC3)cc2)nc2ccccc21 |
| 108 | CC(C)c1ccc(C(=O)CSc2n[nH]c(-c3ccco3)n2)cc1 |
| 101 | Cc1cc2nc3s/c(=C\c4cccc(OCc5c(F)cccc5Cl)c4)c(=O)n3c2cc1C |
| 100 | O=C(Nc1ccccc1)N1CCN(Cc2cc(=O)n3nc(-c4cccc(Cl)c4)sc3n2)CC1 |
| 105 | Cn1c2c(c(=O)[nH]c1=O)C(c1ccc([N+](=O)[O-])o1)C1=C(N2)c2ccccc2C1=O (centres undefined) |
| 98 | O=S(=O)(NCc1nc2cccnc2n1C1CCCC1)c1ccc(F)cc1 |
| 105 | Cc1c(C(=O)N2CCC(C(N)=O)(N3CCCCC3)CC2)sc2ncn(CC(=O)N3CCCCC3C)c(=O)c12 (centres undefined) |
| 103 | CCOC(=O)c1c(C)[nH]c(CCC(=O)NCCCN2CCC(N3CCCCC3)CC2)c1C |
| 105 | CSC1=NC(=Nc2cccc(C)c2)C2(CCCCC2)N1c1ccc(Br)cc1 |
| 101 | Cc1cc(N2C(=O)Cn3cccc3C2C(=O)NC2CCCC2)ccc1Br (centres undefined) |
| 115 | CCCCN1C(=O)/C(=c2\sc3nc(-c4ccccc4OC(C)=O)nn3c2=O)c2ccccc21 |
| 104 | CCC(Sc1nc2n[nH]c(C)c2c(=N)n1-c1ccc(Oc2ccccc2)cc1)C(=O)N1CCOCC1 (centres undefined) |
| 104 | Cc1scc2nc(C(C)C)nc(N3CCC(C(=O)N4CCC5(CC4)OCCO5)CC3)c12 |
| 121 | CCOc1ccc(-n2c(=S)[nH]c3c(sc(=S)n3-c3ccc(Cl)c(C)c3)c2=O)cc1 |
| 101 | CCOc1cccc2sc(N3CCN(C(=O)c4ccc5c(c4)OCCO5)CC3)nc12 |
| 107 | CN(C1=NC(=O)C(C2SC(=O)NC2=O)S1)c1ccc(O)cc1 (centres undefined) |
| 116 | Cc1ccc(-n2nc3c(c2NC(=O)c2cc4ccccc4oc2=O)CS(=O)(=O)C3)c(C)c1 |
| 102 | Cc1cc(C)c(S(=O)(=O)N2CCC3(CC2)NCCN=C3NC(C)(C)C)c(C)c1 |
| 109 | Cc1ccc(S(=O)(=O)N2CC3c4ccccc4CCN3C2C(C)C)cc1 (centres undefined) |
| 103 | O=S(=O)(c1cn(Cc2noc(COc3ccc(Cl)cc3)n2)cn1)N1CCCCC1 |
| 104 | CCCCOC(=O)c1ccc(NC(=O)c2c(O)c3cccc4c3n(c2=O)CC4)cc1 |
| 103 | CC1CCCN(c2ncnc3scc(-c4ccccc4)c23)C1 (centres undefined) |
| 101 | Cc1cc(CN2CCN(C3CCCCC3)CC2)on1 |
| 104 | O=S1(=O)N=CN(c2ccc(Cl)c(F)c2)c2ncccc21 |
| 109 | COC(=O)C(CC(C)C)NC(=O)CSc1nnc2c(n1)[nH]c1ccccc12 (centres undefined) |
| 105 | O=C(CC1CCCCC1)Nc1nnc(SCc2nnc(-c3ccccc3)o2)s1 |
| 114 | O=C(CCC(=O)N1Cc2cccn2-c2ccccc21)NCc1ccc2c(c1)OCO2 |
| 99 | O=C(NC1CCCC1)c1ncoc1-c1ccccc1C(=O)N1CCCC1 |
| 95 | O=C(CC1CCCC1)N1CCOc2ccc(COCc3ccccc3)cc2C1 |

Some of the entries so far, tab-delimited:
canonical_smiles	GIV-Gai inh
O=C(CC1CCCCC1)Nc1nnc(SCc2nnc(-c3ccccc3)o2)s1	105
O=C(CCC(=O)N1Cc2cccn2-c2ccccc21)NCc1ccc2c(c1)OCO2	114

The results go on.
| GIV-Gai inh | compound |
| --- | --- |
| 99 | CC(C)c1csc(-c2csc(S(=O)(=O)Nc3ccc(F)c(F)c3)c2)n1 |
| 107 | CCOC(=O)CC1(NC(=O)N2CCC(c3nc4cccnc4n3C)C2)CCCCC1 (centres undefined) |
| 85* | Cc1ccc(N2C(=O)/C(=C\c3ccc(C(C)C)cc3)C3=C2C(=O)N(c2ccc(C)cc2)C3c2ccccc2)cc1 (centres undefined) |
| 108 | Cn1nc(C(=O)N2CCCC(C(=O)Nc3ccccc3)C2)c2c1CCN(C(=O)C1CCC1)C2 (centres undefined) |
| 108 | CCCN1C=NS(=O)(=O)c2cc(C(=O)NC(C)CC)ccc21 (centres undefined) |
| 100 | Cc1nc2ccccc2c(=O)n1-c1ccc(NC(=O)C2CC2)cc1 |
| 112 | CCOc1ccc(CN2CCCC2c2cc(C(C)C)no2)cc1 (centres undefined) |
| 105 | CCN(CC)c1nc(C)nc2sc(C(=O)Nc3ccc(C)c(F)c3)c(C)c12 |
| 99 | CCCN1CCN(C(=O)CN2C(=O)C3CCCN3C(=O)c3cc(F)ccc32)CC1 (centres undefined) |
| 100 | Cc1nc(N2CCOCC2)c2c(C)c(C(=O)NC3CCCCCC3)sc2n1 |
| 112 | COc1ccccc1-n1c(=O)c2c(n3cnnc13)-c1ccccc1CC21CCCCC1 |
| 103 | N#CC1=C(SCC(=O)Nc2cccc(Br)c2)NC(=O)CC1c1cccs1 (centres undefined) |
| 102 | Cc1ccsc1-c1nnc(C2CCC2)o1 |
| 108 | Cc1ccccc1Cn1cc(C(=O)Nc2cc(F)ccc2F)ccc1=O |
| 106 | COc1cc(-c2c(C#N)c(N)nc(SCC(=O)O)c2C#N)cc(OC)c1OC |
| 108 | Cc1ccc(N2C(=O)CSC23C(=O)N(CN2CCOCC2)c2ccccc23)cc1Br (centres undefined) |

In the list so far, these have an aryl methoxy group:
| GIV-Gai inh | compound |
| --- | --- |
| 101 | COc1cc(C2CC(=O)Nc3c2cnn3-c2nc3ccccc3s2)ccc1OCc1ccccc1 (centres undefined) |
| 98 | COc1ccc(OC)c(NC(=O)C2CCCN(S(=O)(=O)Cc3ccccc3)C2)c1 (centres undefined) |
| 102 | COc1ccc(NC(=O)CSc2nc(N)nc(SC)c2C#N)cc1 |
| 112 | COc1ccccc1-n1c(=O)c2c(n3cnnc13)-c1ccccc1CC21CCCCC1 |
| 106 | COc1cc(-c2c(C#N)c(N)nc(SCC(=O)O)c2C#N)cc(OC)c1OC |

Further structures follow:
| GIV-Gai inh | compound |
| --- | --- |
| 107 | CN(C(=O)c1c[nH]c2ccc(S(=O)(=O)N(C)c3ccc(Br)cc3)cc2c1=O)C1CCCCC1 |
| 102 | Cc1nn(C)c2c(N3CCC(C(=O)NCCN4CCC(N5CCCCC5)CC4)CC3)nccc12 |
| 112 | COc1cc(C2C(C#N)=C(N)N(c3cccc([N+](=O)[O-])c3)C3=C2C(=O)CCC3)cc(OC)c1OC (centres undefined) |
| 106 | CCCNC(=O)c1sc(-c2nnn(-c3ccccc3)c2C)nc1C |
| 100 | Cc1ccccc1CNC(=O)c1ccc(Nc2ncc(-c3cccc(F)c3)cn2)cc1 |
| 114 | CCCC(=O)N1c2cc(OC)ccc2C2=C(SC(C(=O)OC)=C(C(=O)OC)C23SC(C(=O)OC)=C(C(=O)OC)S3)C1(C)C |
| 99 | OC(c1ccc(F)cc1)c1cccnc1 (centres undefined) |
| 100 | CN(C)S(=O)(=O)c1ccc(-c2nnc(C(=O)NC3CCCC3)o2)cc1 |
| 109 | Cc1nn(-c2ccc3nnc(C)n3n2)c(C)c1CCC(=O)Nc1ccc(F)c(F)c1 |
| 100 | CCNC(=O)N1CCCC1c1cc(C)no1 (centres undefined) |
| 106 | Cc1cc(-c2nc(-c3ccc(NC(=O)c4cccc(Cl)c4)cc3)no2)ccc1[N+](=O)[O-] |
| 101 | CN(C)CCCNC(=O)c1cc2c(s1)CN(C1CCCC1)C2 |
| 101 | O=C(CSc1nnc2c(=O)n(-c3ccc(Br)cc3)ccn12)c1c[nH]c2ccccc12 |
| 103 | O=C1CCCC2=C1C(C#Cc1ccccc1)C1=C(CCCC1=O)O2 |
| 100 | COc1ccc(OC)c(CNC(=O)c2ccc(-c3cnc(NCc4ccccc4)nc3)cc2)c1 |
| 113 | COc1cc(C(=O)Nc2nnc(SCC(=O)Nc3ccc(F)cc3)s2)cc(OC)c1OC |
| 106 | COc1ccc(C2=NN(C(=O)CSc3nnc(CNC(=O)c4ccc(OC)c(OC)c4)n3C)C(c3ccc(F)cc3)C2)cc1 (centres undefined) |
| 108 | COc1cccc2cc(C(=O)Nc3ccccc3)c(=Nc3ccc(C(=O)O)cc3)oc12 |
| 108 | COC(=O)c1cccc(N2C(=O)C3C(C2=O)C2(C=O)c4ccccc4C3(C)c3ccccc32)c1 (centres undefined) |
| 109 | O=C(N/N=C/c1ccc(Sc2nnc(-c3ccccc3)n2-c2ccccc2)o1)c1cc2ccccc2cc1O |
| 102 | O=C(c1nnc(-c2ccc(S(=O)(=O)N3CCOCC3)cc2)o1)N1CCN(C2CCCCC2)CC1 |
| 100 | O=C(NCc1ccccc1)c1cccc(Oc2cc(-c3ccccc3)ncn2)c1 |
| 104 | O=C(c1ccccc1)N1CCOc2ccc(COCc3cccc(F)c3)cc2C1 |
| 114 | Cc1cccc(N2CCN(c3cccc(C)c3)C2c2ccc(N(C)C)cc2)c1 |
| 102 | Cc1ccc(-c2nc(-c3ccc(Br)cc3)[nH]c2-c2ccccc2)cc1C |
| 115 | O=C(NCc1ccco1)/C(=C\c1ccco1)NC(=O)c1ccccc1 |
| 106 | CCOc1ccc(C2=NN3C(C2)c2cccc(OC)c2OC3c2ccc(F)c(F)c2)cc1 (centres undefined) |
| 106 | Cc1ccc2c(c1)-c1c(ssc1=S)C(C)(C)N2C(=O)C(Cc1ccccc1)N1C(=O)c2ccccc2C1=O (centres undefined) |
| 121 | O=c1n(Cc2ccccc2)nc2c(-c3nc(-c4ccccc4)no3)cccn12 |
| 104 | COc1ccccc1N1CCN(C(=O)/C(=C/c2cccnc2)NC(=O)c2ccccc2)CC1 |
| 101 | COCCN1C(=O)c2ccccc2Sc2cc(NC(=O)C3CC3)ccc21 |
| 112 | Cc1c(CC(Cl)(Cl)Cl)c2c(n1N1CCOCC1)CCCC2=O |
| 101 | COc1ccc(NC(=O)CSc2nc3n[nH]c(C)c3c(=N)n2-c2ccccc2Cl)c(OC)c1 |
| 103 | CCc1ccc(-c2noc(-c3nnn(Cc4nc(-c5ccc(C)cc5)oc4C)c3C)n2)cc1 |
| 112 | CCOc1ccc2nc(SCC(=O)Nc3ccc4nc(SCC(=O)N5CCOCC5)sc4c3)sc2c1 |
| 105 | CC1(C)CC(=O)C2=C(C1)N(c1cccc([N+](=O)[O-])c1)C(N)=C(C#N)C2c1ccc2c(c1)OCO2 (centres undefined) |
| 102 | N#CC1=CN(c2ccc(F)c(Cl)c2)c2cc(Cl)ccc2S1(=O)=O |
| 112 | CCCCNC(=O)c1ccc2c(c1)S(=O)(=O)N=CN2CCC |
| 115 | O=c1[nH]c(-c2ccccc2)nc2c1C1(CCCC1)Cc1ccccc1-2 |
| 114 | O=C(c1cc2nc(-c3ccc4c(c3)OCO4)cc(C(F)(F)F)n2n1)N1CCc2ccccc2C1 |

Some of the entries so far, in markdown:
| Compound | GIV-Gai inh |
| --- | --- |
| COCCN1C(=O)c2ccccc2Sc2cc(NC(=O)C3CC3)ccc21 | 101 |
| Cc1c(CC(Cl)(Cl)Cl)c2c(n1N1CCOCC1)CCCC2=O | 112 |
| COc1ccc(NC(=O)CSc2nc3n[nH]c(C)c3c(=N)n2-c2ccccc2Cl)c(OC)c1 | 101 |

(further entries)
| GIV-Gai inh | compound |
| --- | --- |
| 119 | N#Cc1ccc(Nc2nnc(-c3cc4c(ccc5ccccc54)oc3=O)s2)cc1 |
| 121 | COc1ccc(C(=O)c2sc3nc(C)cc(-c4cccs4)c3c2N)cc1OC |
| 124 | Cc1cccc(N(CC(=O)Nc2ccc(S(=O)(=O)N3CCCCC3)cc2)S(=O)(=O)c2ccccc2)c1C |
| 103 | Cc1cc(C2CCCN2C(=O)c2cc(-c3cccc(Cl)c3)on2)on1 (centres undefined) |
| 100 | CCOC(=O)C1=C(C)NC(SCC(=O)c2ccc(Cl)cc2)=C(C#N)C1CC(C)C (centres undefined) |
| 110 | Cc1nc2cc(C(=O)NCC3CCCO3)ccc2n1-c1ccc(Br)cc1 (centres undefined) |
| 99 | CCOC(=O)c1ccccc1NC(=O)Cc1c(C(=O)O)c(C)cn1CC |
| 108 | Cc1ccccc1-n1c(=S)sc2c1nc(SCC(=O)N1CCC(C)CC1)n1c3ccccc3nc21 |
| 111 | O=C(CSc1nnc(-c2ccccc2)c(-c2ccccc2)n1)c1ccccc1 |
| 110 | Cc1ccc(C(=O)[C@@H]2[C@@H](c3ccc(F)cc3)C(C#N)(C#N)[C@H]3C=Cc4ccccc4N23)cc1 |
| 108 | Cc1c(NC(=O)CSc2nc3ccccc3n2C)c(=O)n(-c2ccccc2)n1C |
| 108 | CCOC(=O)N1CCN(C(=O)Cn2c(=O)c3ccccc3n(CC)c2=O)CC1 |
| 107 | COc1ccc(-c2cc(-c3ccccc3)nc(SCC(=O)Nc3cc(C)on3)c2C#N)cc1 |
| 108 | Fc1ccc(-c2nnc3ccc4ccccc4n23)cc1 |
| 105 | O=C(c1c[nH]c2ccc(S(=O)(=O)N3CCc4ccccc43)cc2c1=O)N(Cc1ccco1)CC1CCCO1 (centres undefined) |
